Screening results (PubChem)
Lassa entry inh – qHTS for Inhibitors of binding or entry into cells for Lassa Virus; Potency, µM (series often up to 37.9 µM), without a hit: at the highest dose activity change, negative = inhibition, actives largely listed as inhibitors; AID 540256, 2011; 300,000 compounds, 1.2% hits; Lassa virus pseudotype entry inhibition, cell reporter; control for the full effect not named in the record; active means well fitted inhibition curve with a large enough effect; inconclusive means small, poorly fitted or top-dose-only effect, or effect the other way; inactive means flat fitted curve, though single readings scatter; tested in HEK293 cells; also: % is scaled to controls: 0 for no effect and ±100 for the full control effect; nearly all actives have a fitted effect of over 50% in size; luciferase read-out
Cruzain inh Det – qHTS Assay for Promiscuous and Specific Inhibitors of Cruzain (with detergent); 200,000 compounds, 0.43% hits; purified cruzain, Z-FR-AMC fluorescence, 0.01% Triton; Cruzipain (Trypanosoma cruzi), P25779; Potency, µM, inactives show max response, negative = inhibition, hits mostly inhibitors;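 also: plate controls were neutral wells for no effect and buffer without enzyme for full effect; nearly all actives have a fitted effect of over 40% in size; top concentration of the series not given in the record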
Target sequence (P25779 123-467 limits assumed): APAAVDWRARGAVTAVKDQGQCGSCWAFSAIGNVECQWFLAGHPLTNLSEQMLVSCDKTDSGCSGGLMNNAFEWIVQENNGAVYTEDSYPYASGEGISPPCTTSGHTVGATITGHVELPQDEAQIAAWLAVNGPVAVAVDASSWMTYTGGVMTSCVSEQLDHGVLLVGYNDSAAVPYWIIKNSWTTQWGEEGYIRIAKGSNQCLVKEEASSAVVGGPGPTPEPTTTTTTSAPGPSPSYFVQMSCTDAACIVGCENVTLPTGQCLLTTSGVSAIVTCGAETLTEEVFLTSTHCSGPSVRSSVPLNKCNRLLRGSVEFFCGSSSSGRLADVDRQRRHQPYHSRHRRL
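Purified cruzain (1.5 nM final) was preincubated with compounds for 15 min at room temperature in 100 mM sodium acetate pH 5.5, 5 mM DTT, 0.01% Triton X-100. Reaction started with 2 uM Z-FR-AMC; AMC fluorescence change over 60 s gave activity.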
RE007 growth inh – qHTS Assay for Inhibitors of the HIV-1 protein Vpr. 360,000 compounds, 0.21% hits. Potency, µM (top dose mostly 92.2 µM), for inactives: at the highest dose activity change, negative = less growth. S. pombe RE007 Vpr strain, BacTiter-Glo ATP luminescence, 24 h; control for the full effect not named in the record; active = well fitted falling curve with a large enough effect; inconclusive = small, poorly fitted or top-dose-only effect; inactive = no such curve, though single readings can be large or run the other way;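 also: % is scaled to controls: 0 for no effect and ±100 for the full control effect; nearly all actives have a fitted effect of over 50% in size; the assay follows cell death caused by Vpr and the record does not say whether a fall means rescue or toxicity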
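Fission yeast strain RE007, carrying one chromosomally integrated HIV-1 vpr copy, was seeded at OD 0.01 in PMG+AL medium with 23 nL pinned compound. After 24 h at 30 °C and 99% humidity, viability was read by BacTiter-Glo luminescence.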
SARS PLpro yeast – qHTS of Yeast-based Assay for SARS-CoV PLP | S. cerevisiae expressing SARS-CoV PLpro, growth rescue; control for the full effect not named in the record | Potency, µM (titrated, usually from 32.9 µM), inactives show at the highest dose activity, positive = growth rescue | 330,000 compounds, 0.19% hits | AID 485353, 2010; active means well fitted rising curve with a large enough effect; inconclusive means small, poorly fitted or top-dose-only effect; inactive means no such curve, though single readings can be large or run the other way; also: 0% is about no effect; nearly all actives have a fitted effect of over 55% in size; growth read by luminescence after 48 h
NS1 function inh – qHTS Assay for Inhibitors of Influenza NS1 Protein Function; S. cerevisiae slowed by influenza A NS1, growth recovery by OD600; Potency, µM (titrated, usually from 46.1 µM), without a hit: at the highest dose activity, positive = more growth; 270,000 compounds, 0.4% hits; AID 2326, 2010; active means well fitted rising curve with a large enough effect; inconclusive means small, poorly fitted or top-dose-only effect; inactive means no such curve, though single readings can be large or run the other way; also: nearly all actives have a fitted effect of over 50% in size
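In this qHTS, NS1 from influenza A is expressed in budding yeast, where it slows growth. Cells are switched from glucose to 2% galactose medium (pH 6.0, -URA), treated with compound, and growth recovery is read at OD600.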
StopGo reporter – High Throughput Screening for Foot and Mouth Disease Virus Antivirals; human cells with a luciferase reporter of 2A StopGo recoding; control for the full effect not named in the record; Potency, µM (highest dose often 57.9 µM), for the others: top-dose signal change, negative = less light; 410,000 compounds, 1.2% hits; AID 1159524, 2015; active = well fitted falling curve with a large enough effect; inconclusive = small, poorly fitted or top-dose-only effect; inactive = no such curve, though single readings can be large or run the other way; tested in HEK293T cells; also: % is scaled to controls: 0 for no effect and ±100 for the full control effect; nearly all actives have a fitted effect of over 45% in size; luciferase light after 4 h
MARV entry inh – qHTS for inhibitors of binding or entry into cells for Marburg Virus; Marburg virus pseudotyped entry inhibition, cell reporter; control for the full effect not named in the record; about a third of the inactives were read at about 46 µM; Potency, µM (doses to about 37.8 µM), for the others: at the top dose activity change, negative = inhibition, hits mostly inhibitors; 300,000 compounds, 1.8% hits; active = well fitted inhibition curve with a large enough effect; inconclusive = small, poorly fitted or top-dose-only effect, or effect the other way; inactive = flat fitted curve, though single readings scatter; tested in HEK293 cells; about a fifth of its hits are not listed in these tables; also: % is scaled to controls: 0 for no effect and ±100 for the full control effect; luciferase read-out
Cruzain inh noDet – qHTS Assay for Promiscuous and Specific Inhibitors of Cruzain (without detergent) | Cruzipain (Trypanosoma cruzi), P25779 | purified cruzain, Z-FR-AMC fluorescence, no detergent | Potency, µM, without a hit: max response, negative = inhibition, actives largely listed as inhibitors | 200,000 compounds, 2.3% hits | AID 1476, 2009;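 also: plate controls were enzyme without inhibitor for no effect and buffer without enzyme for full effect; nearly all actives have a fitted effect of over 40% in size; top concentration of the series not given in the record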
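Purified cruzain at 1.5 nM, pre-incubated 15 min with compound at room temperature in 100 mM sodium acetate pH 5.5, 5 mM DTT, 0.00005% Triton X-100. Reaction started with 2 uM Z-FR-AMC; AMC fluorescence increase over 60 s gives rate.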
* marks the source's active call; other numbers are inactive results; ? = inconclusive; . = no result given; & = joins results of further samples; [ ] = dose if it differs, or a comment. Unless noted, calls follow the shape of the dose curve; as a rule, active = well fitted curve in the direction sought with a large enough effect; inconclusive = small, poorly fitted or top-dose-only effect, or another doubt; inactive = no such curve, though single readings can be large; an effect the other way counts as inactive or inconclusive. Potency is read from the fitted curve at half-maximal effect.

Order of values: Lassa entry inh	Cruzain inh Det	RE007 growth inh	SARS PLpro yeast	NS1 function inh	StopGo reporter	MARV entry inh	Cruzain inh noDet
COCCn1c(=O)[nH]c2cc(C(=O)Nc3ccc(OC)cc3)ccc2c1=O
 : -9%[46.1 µM]	1.3%	.	.	.	15%	9%[46.1 µM]	-5%
CC(=O)/C(C(=N)N1CCN(C(c2ccccc2)c2ccccc2)CC1)=C(\C)O
 : 1%	6.1%	2%	1%	9%	-20%	0%	10%
CC(=O)/C(=C/c1ccccc1)C(=O)Nc1ccccc1C
 : .	.	0%	0%	-4%	14µM*	.	.
COc1ccc2[nH]cc(S(=O)(=O)c3ccc(C)cc3)c2c1
 : -8%[46.1 µM]	.	31%	3%	.	15%	?	.
FC(F)(F)c1ccc(C2Nc3cccc4cccc(c34)N2)cc1
 : 0%[46.1 µM]	.	16%	-5%	9%	-16%	?	.
CC(C)(C)NC(=O)CN(C(=O)CNC(=O)c1cccs1)c1ccccc1F
 : -5%	.	5%	1%	1%	-1%	0%[46.1 µM]	.
CN(CC(CC(=O)Nc1nncs1)c1ccccc1)S(=O)(=O)c1ccccc1 (stereo not given)
 : .	4.7%	-5%	3%	-3%	10%	.	-19%
O=C(CN(CCc1ccccc1)C(=O)c1csnn1)NCc1ccc(F)cc1
 : .	.	5%	-21%	3%	-17%	-23%[46.1 µM]	.
CCn1c(SCC(=O)N/N=C/C(C)=C/c2ccco2)nnc1-c1ccccc1
 : -5%	-9.0%	4%	-2%	-3%	4%	-4%	-15%
CCOc1ccc(N=CC2=C(O)CC(C)(C)CC2=O)cc1
 : 10%	0.9%	1%	1%	-13%	-16%	3%	-14%
COc1ccc(CSCC(=O)NN=C2CCN(C)CC2)cc1
 : -12%[46.1 µM]	.	17%	-6%	1%	1%	5%[46.1 µM]	.
N#Cc1ccc(C(=O)Nc2cc(S(=O)(=O)Nc3ccc(Cl)cc3)ccc2N2CCCCC2)cc1
 : ?	-2.5%	-13%	4%	16%	50%[activator]	?	?
NC(N)=NS(=O)(=O)c1ccc(NC(=S)NC(=O)c2ccc(Br)cc2)cc1
 : .	.	8%	-2%	0%	-20%	.	.
COc1ccccc1NC(=O)C1CCCN(S(=O)(=O)c2cccc3nsnc23)C1 (stereo not given)
 : -25%	-1.2%	0%	-5%	4%	-28%	-4%[46.1 µM]	-2%
COc1ccccc1NC(=O)C(C)OC(=O)/C=C/c1ccc2ccccc2n1 (stereo not given)
 : -3%	.	?	0%	.	39%[activator]	-2%	.
CN1C/C(=C/c2ccccc2[N+](=O)[O-])C(=O)/C(=C\c2ccccc2[N+](=O)[O-])C1
 : 8.9µM*	.	1%	.	.	18µM*	3.2µM*	.
Cc1ccc(NNC(=O)C2CCC2)cc1C
 : ?	.	64%	-2%	-9%	-11%	-5%	.
CCN(CC)C(=O)Oc1ccc(Br)c2ccccc12
 : ?	-7.5%	-28%	15%	-24%	-28%	?	-9%
COc1ccc(CNC(=O)C2CCC(CNS(=O)(=O)c3cccs3)CC2)cc1 (stereo not given)
 : -25%	-2.3%	-11%	0%	8%	-27%&-6%	?	-1%
CC(C)(CN1CCN(Cc2ccccc2)CC1)NS(=O)(=O)c1ccc(Cl)cc1
 : .	.	6%	-1%	-2%	-15%	.	.
CC(=O)c1sc(NC(=O)C(C)Oc2ccc3c(C)cc(=O)oc3c2)nc1C (stereo not given)
 : -10%	.	6%	-2%	4%	0%	5%	.
Cc1c(C(=O)NCc2nnc(-c3ccccc3)o2)oc2c(F)cccc12
 : 1%	.	18%	-3%	-3%	25%	-21%[46.1 µM]	.
Clc1ccc(-n2c(SC/C=C/c3ccccc3)nnc2-c2cccnc2)cc1
 : -8%	-5.8%	15%	-13%	2%	0%	?	3%
CCN(C(=O)COC(=O)c1cccc(S(=O)(=O)N2CCOCC2)c1)C1CCS(=O)(=O)C1 (stereo not given)
 : 23%	.	-4%	-1%	.	-13%	?	.
Cc1ccc(-c2c(C)sc(NC(=O)C3C4CCC(O4)C3C(=O)O)c2C(=O)OC(C)C)cc1 (stereo not given)
 : -1%	-6.0%	-20%	-3%	20%	?	15%	?
COc1ccc(S(=O)(=O)NCCc2csc3nc(-c4ccc(Cl)cc4)nn23)cc1C
 : 4%[46.1 µM]	-6.2%	.	.	.	-3%	.	-3%
CC(=O)N1c2c(cc(Br)cc2S(=O)(=O)NCc2ccc(C)cc2)CC1C (stereo not given)
 : .	.	-1%	-2%	-12%	4%	-16%[46.1 µM]	.
c1ccc(-c2nc(CSc3nnnn3-c3ccccc3)cs2)cc1
 : -24%	-1.3%	18%	-1%	-8%	.	-1%	-2%
O=C1CCN(S(=O)(=O)c2ccccc2)N1
 : 13%	3.1%	0%	-5%	12%	0%	-5%	-10%
CC1CC(=O)N(CC(=O)Nc2ccc(Br)cc2)c2ccccc2S1(=O)=O (stereo not given)
 : .	.	-3%	?	-3%	-22%	.	.
COc1cc(-c2noc(-c3ccc(NCc4ccco4)c([N+](=O)[O-])c3)n2)cc(OC)c1OC
 : ?	-6.6%	.	.	.	-20%	17%[46.1 µM]	?
O=C(CCC(=O)N/N=C/c1ccco1)N/N=C/c1ccco1
 : 1%	.	1%	1%	5%	-2%	?	.
COc1cc(NC(=O)C2CC(c3ccc(Cl)cc3)=NO2)cc(OC)c1OC (stereo not given)
 : .	.	5%	2%	28%	-23%	.	.
COc1ccc(CN=C(C#N)C2=C(O)c3ccccc3C2=O)cc1
 : .	.	1%	5%	-10%	17%	.	.
Cc1cc(C(C)(C)C)oc1C(=O)N(CC(=O)NC1CCCC1)Cc1ccc(F)cc1
 : -2%	2.2%	2%	6%	14%	.	-8%	-2%
Cc1ccccc1OCCCCn1c(-c2ccc(Cl)cc2)nc2ccccc2c1=O
 : -3%[46.1 µM]	-1.6%	.	.	.	-11%	-33%[46.1 µM]	-3%
CN1C(C(=O)Nc2cccc(O)c2)=CC(c2cccs2)=NS1(=O)=O
 : -3%[46.1 µM]	-4.5%	-12%	12%	-4%	?	15%[46.1 µM]	-5%
O=C(COc1ccccc1)Nc1ccc(-c2nnc(-c3ccco3)o2)cc1
 : 1%	-3.1%	7%	-5%	10%	7%	5%&5%	-6%
NNC(=O)c1ccc(Cn2cccn2)o1
 : 7%	.	18%	-1%	1%	10%	28%[46.1 µM]	.
CCOC(=O)c1c(C)n(C)c2ccc(O)c(S(=O)(=O)c3ccccc3)c12
 : 8%	2.9%	-10%	2%	-4%	78%[activator]	-13%&-13%	-1%
Cc1cccc(-n2c(SCC(=O)c3ccccc3)nnc2-c2ccc(Br)cc2)c1
 : -5%[46.1 µM]	0.6%	.	.	.	12%	.	0%
CCCN1C2CCCC1CC(NC(=O)NC1CCCCC1)C2 (stereo not given)
 : ?	3.3%	-24%	5%	-3%	13%	26%	-5%
Cc1ccc(NC(=O)CSc2nc3ccccc3nc2N2CCOCC2)c(C)c1
 : .	.	6%	2%	10%	-6%	.	.
CC1=CC2=NC(=O)CC(C)(C(=O)N(CC(=O)NC(C)(C)C)Cc3cccs3)N2C=C1 (stereo not given)
 : 4%	-2.2%	-2%	1%	7%	.	2%	-1%
Cc1ccc(-c2nc3ccc(C)cn3c2CC(=O)N(C)C)cc1
 : .	2.2%	9%	.	.	-9%&22%	.	12%
CCOC(=O)COc1cccc2c(=O)n(CC(N)=O)ccc12
 : .	.	3%	-3%	2%	-18%	.	.
CCC(=O)N1CCc2cc(S(=O)(=O)NC(CC(C)C)C(=O)N3CCc4ccccc43)ccc21 (stereo not given)
 : -17%	0.1%	19%	-1%	-53%	4%	9%	-7%
Cc1ccc(C(=O)NCc2ccco2)cc1Br
 : -4%	-0.7%	-23%	-7%	-19%	-7%	6%	2%
CN(C)C(=O)CCc1ccc2c3c([nH]c2c1)[C@]1(C)[C@@H](C(=O)N2CCCCC2)C[C@H](CC(=O)NCc2ccco2)C(=O)N1CC3
 : .	.	-2%	4%	.	-1%	-5%	.
CC(C)C(=O)Nc1nnc2n1CCS2
 : -1%[46.1 µM]	1.1%	.	.	.	-1%	.	1%

(cont.)
Order of values: Lassa entry inh	Cruzain inh Det	RE007 growth inh	SARS PLpro yeast	NS1 function inh	StopGo reporter	MARV entry inh	Cruzain inh noDet
CC1CCCN(C(=O)c2ccc(N3CC4CC(C3)c3cccc(=O)n3C4)c([N+](=O)[O-])c2)C1 (stereo not given)
 : 4%	-1.1%	1%	1%	2%	-11%	?	-7%
O=C(CNc1cccc2ccccc12)N/N=C/c1ccc([N+](=O)[O-])o1
 : ?	-11%	-8%	-80%	-10%	0%	?	12%
CCOc1ccc2c(c1)c(=O)c(S(=O)(=O)c1ccccc1)cn2CC(=O)Nc1ccccc1OC
 : -22%[46.1 µM]	-3.7%	.	.	.	17%	-16%[46.1 µM]	-18%
CCOC(=O)c1cc(-c2ccc3c(c2)OCCO3)n[nH]1
 : ?	.	5%	0%	-4%	-6%	5.6µM*	.
O=C(c1ccccc1)c1cn(CC(=O)N2CCCc3ccccc32)c2ccccc12
 : ?	-4.9%	11%	0%	14%	-10%	?	-6%
COc1cccc(Oc2cn[nH]c2-c2ccc(OCC(=O)NN)cc2O)c1
 : .	.	1%	6%	17%	-8%	.	.
O=C(NCCNc1nccc(C(F)(F)F)n1)c1cccc(C(F)(F)F)c1
 : -18%	.	-16%	1%	0%	?	.	.
COc1ccccc1OCCn1cc(/C=C(\C#N)C(=O)NCc2ccco2)c2ccccc21
 : -2%	-4.7%	.	14%	14%	-18%	3%	10%
COc1ccc(OC)c(C(=O)c2coc3ccc(OC)cc23)c1
 : -8%	-5.2%	-6%	-10%	-90%	-22%	-7%	1%
CC(C)(C)OC(=O)NC(Cc1ccccc1)C(=O)O (stereo not given)
 : .	.	12%	-2%	0%	-15%	.	.
